HNF4A DNA FP = change in binding of human HNF4 alpha to DNA; 0.3% of 360,000 active; HNF4a-FITC DNA binding, fluorescence polarization, 1 h; AID 1224865; activity change, % at 10 µM; in the data active = activity change above about 30%, passing the limit was not always enough;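 note: controls were the assay level and a saturating level of protein; the project sought stronger binding though the title names inhibitors; some compounds called inactive have numbers as strong as hits; positive values seem to mean higher polarization but the record does not say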
UCH37 inh = blocks the human deubiquitinase UCH37 | Q9Y5K5 | purified proteasome/UCH37, Ub-AMC cleavage fluorescence | inhibition, % (concentration not given with the values) | 0.33% of 330,000 active | AID 588478;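 active = mean of two replicates above 20%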;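 note: 0% = compound-free wells with enzyme and 100% = wells lacking proteasome; stock transfer was 100 nL into about 20 µL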
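Reagent: Ub-AMC substrate; assay system: Proteasome-associated human UCH37 deubiquitinase; controls: no-proteasome and no-compound wells; read-out: % inhibition of Ub-AMC cleavage fluorescence; timing: 30 min preincubation with enzyme, 25 min cleavage at room temperature; signal: AMC fluorescence from Ub-AMC cleavage, excitation 355 nm, emission 460 nm; buffer or medium: Tris-HCl pH 7.4 plus ovalbumin, ATP-MgCl2, DTT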
Vif TR-FRET = HIV-1 Vif–A3G interaction blockers – biochemical, TR-FRET, GST-Vif 1-94, biotin-A3G peptide, dose response retest, primary screen (AID 1117319); 0.57% of 260,000 active; TR-FRET GST-Vif / biotin-A3G peptide binding; higher % means a stronger effect; test concentration not given here; strong numbers were not always called active; one-dose inhibition, %; IC50 in µM for titrated hits;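 active = above the screen mean plus three standard deviations and confirmed in dose response; inconclusive = results disagree or hit not tested in dose response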;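 note: Vif residues 1-94 fused to GST binding biotinylated APOBEC3G peptide 110-148; 0% = full assay without inhibitor and 100% = GST in place of GST-Vif; retest series ran down from 100 µM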
B2AR ag = human beta-2 adrenergic receptor agonism by FAP | 0.43% of 340,000 active | response, % (concentration not given with the values) | Am2.2-beta2AR cells, FAP receptor internalization, flow cytometry; reference of the scale not given here | P07550;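 active = response above a set limit, near 3 SD of response in nonfluorescent compounds, cut at about 42% in these data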;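 note: stock transfer was 100 nL into about 11 µL; a reference agonist was the positive control; negative values mostly stem from fluorescent compounds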
Bfl-1 A1 inh = inhibitors of the anti-apoptotic protein A1, read as caspase activation. MEF A1-2A-BIM cells, Caspase-Glo 3/7 luminescence, 3 h; percent of clofoctol response, vehicle zero. caspase activation, % (no concentration beside the values). 0.066% of 330,000 active;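 active = over half of replicate activation scores above 10%, or exactly half above 10 with the replicate mean above 10; inconclusive = replicate mean below 10 yet half the replicates above 10; inactive = over half of replicates below 10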;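 note: wells of about 30 µL received 50 nL stock; many hits fall short of the cut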
E coli growth = blocks Escherichia coli growth; OD600, 23 h; active compounds read low; OD600 absorbance (test concentration not listed); 0.21% of 330,000 active;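 active = OD600 absorbance below the run mean of sample wells minus 3.6 SD, in any replicate, cut at about 0.56 in these data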;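 note: stock transfer was 300 nL into about 60 µL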
LANA-H2A inh = blocks KSHV LANA binding to histone H2A/H2B; 0.6% of 320,000 active; inhibition, % (no concentration beside the values); Q9QR71; AID 2629; cell-free LANA-H2A/H2B peptide, fluorescence polarization; in the data active = inhibition mostly above about 10%, no sharp cut-off; inactive = mostly below about 6.7%;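 note: stock transfer was 7.5 nL into about 10 µL; 0% = median of vehicle wells and 100% = median of positive control wells; one replicate is shown; the record names a cut of 25% in any replicate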
Target sequence (Q9QR71 whole entry, looked up): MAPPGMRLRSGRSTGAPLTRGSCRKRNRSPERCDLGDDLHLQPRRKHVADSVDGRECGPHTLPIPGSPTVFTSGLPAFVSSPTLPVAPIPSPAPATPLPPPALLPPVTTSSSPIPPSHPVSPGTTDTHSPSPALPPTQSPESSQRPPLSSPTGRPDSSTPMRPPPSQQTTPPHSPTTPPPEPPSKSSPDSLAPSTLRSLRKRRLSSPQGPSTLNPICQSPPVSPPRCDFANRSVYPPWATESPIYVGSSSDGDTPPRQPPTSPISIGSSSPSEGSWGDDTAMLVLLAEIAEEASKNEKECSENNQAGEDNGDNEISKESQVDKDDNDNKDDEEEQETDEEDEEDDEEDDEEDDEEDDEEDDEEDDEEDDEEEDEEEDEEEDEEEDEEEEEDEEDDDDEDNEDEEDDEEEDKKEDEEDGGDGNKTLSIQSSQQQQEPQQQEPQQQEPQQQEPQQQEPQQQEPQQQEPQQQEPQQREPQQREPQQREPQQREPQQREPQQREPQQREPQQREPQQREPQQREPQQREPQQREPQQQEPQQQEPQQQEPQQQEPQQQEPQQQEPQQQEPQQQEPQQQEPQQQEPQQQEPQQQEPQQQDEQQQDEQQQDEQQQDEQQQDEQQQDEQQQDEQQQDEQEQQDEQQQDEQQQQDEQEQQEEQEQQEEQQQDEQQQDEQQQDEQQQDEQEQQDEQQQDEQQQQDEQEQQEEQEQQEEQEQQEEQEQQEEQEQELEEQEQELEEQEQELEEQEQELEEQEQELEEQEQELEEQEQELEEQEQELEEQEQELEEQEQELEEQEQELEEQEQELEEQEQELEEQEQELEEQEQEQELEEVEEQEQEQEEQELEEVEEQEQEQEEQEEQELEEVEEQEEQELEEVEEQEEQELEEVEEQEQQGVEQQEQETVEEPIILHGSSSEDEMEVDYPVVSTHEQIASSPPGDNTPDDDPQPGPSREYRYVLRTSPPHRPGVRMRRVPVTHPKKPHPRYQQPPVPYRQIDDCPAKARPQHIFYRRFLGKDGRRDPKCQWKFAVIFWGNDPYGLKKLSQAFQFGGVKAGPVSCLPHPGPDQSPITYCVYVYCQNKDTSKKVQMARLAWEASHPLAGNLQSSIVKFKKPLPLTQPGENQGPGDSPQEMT
* hit, by the source's call; ? = inconclusive; nt = not tested or not shown; & = joins results of further samples.

SMILES	HNF4A DNA FP	UCH37 inh	Vif TR-FRET	B2AR ag	Bfl-1 A1 inh	E coli growth	LANA-H2A inh
CCOC(=O)c1ccc(NC(=O)NC2CC3CCC(C2)N3Cc2nnnn2C(C)(C)C)cc1 (stereo unspecified)	1.4	6.5	?	1.3	0.1	0.748	1.8
COc1cccc(C(=O)Nc2ccc3c(C)cc(=O)oc3c2)c1	9.7	-83.3	nt	4.5	-10.2	0.669	-7.2
Nc1ccc(-c2nnn(CC(=O)N3CCCCC3)n2)cc1	0.5	0.1	nt	-3.5	0.0	0.623	0.0
C#CCOCCOCCOCCNc1nc(N2CCN(C(=O)[C@H]([C@@H](C)CC)n3cc([C@@H](N)CO)nn3)CC2)nc(N2CCN(C(=O)[C@H]([C@@H](C)CC)n3cc([C@@H](N)Cc4ccc(O)cc4)nn3)CC2)n1	-1.9	-0.9	-7.0%	-1.4	0.5	nt	-0.1
C=CCSc1nnc2n(-c3ccccc3OC)c(=O)c3c4c(sc3n12)CCC4	nt	-1.0	?	nt	0.3	0.72	-2.3
COc1ccc(CCNC(=O)c2ccc3c(c2)N(Cc2ccc(F)cc2)CCS3)cc1OC	3.5	nt	nt	1.7	-0.4	nt	2.6
FC(F)(F)c1nc2ccccc2n2c(-c3ccc(Cl)cc3)nnc12	0.9	-143.7	17.2%	14.4	-0.2	0.722	1.8
COc1ccc(Cn2cnc3c(NS(C)(=O)=O)c(C)c(C)cc32)cc1	0.5	3.7	-1.0%	9.7	-0.4	0.683	0.7
Cc1cc(-c2ccccc2)cc(=O)[nH]1	1.3	nt	-18.4%	-5.7	nt	nt	nt
CC(=O)Nc1nonc1-c1nc2ccccc2n1Cc1nnc(C)o1	2.7	-13.3	5.7%	6.0	1.2	0.712	-2.5
COc1ccc(NC(=S)N2CCN(S(=O)(=O)c3ccc(OC)cc3)CC2)cc1	-0.8	3.4	nt	-14.9	0.3	0.678	-3.2
O=C(c1ccco1)N1CCN(C(c2ccc(F)cc2)c2nnnn2CC2CCCO2)CC1 (stereo unspecified)	-1.8	2.9	-2.0%&-0.6%	-2.1	0.2	0.76	-3.3
CC(C)C(=O)Nc1ccc(N2CCCC2)cc1	6.4	-1.7	25.7%	-0.2	-0.8	0.685	-0.8
COc1ccc(NC(=S)Nc2cc(-c3ccccc3)[nH]n2)cc1Cl	2.5	0.0	7.3%	-0.3	0.5	0.644	-7.2
CCCc1nc(SCC(=O)Nc2nccs2)c2ccccc2n1	0.4	5.3	4.8%	-6.1	-0.3	0.662	8.9
CCn1cc(C(=O)N(C)c2ccccc2F)c2cc(OC)c(OC)cc2c1=O	0.8	1.2	-4.2%	3.5	0.6	0.623	-4.1
O=C1OCCN1S(=O)(=O)Nc1ccccc1	-5.8	-0.6	-1.3%	-3.2	1.7	0.648	0.0
CCCCc1cc(=O)oc2cc(C)cc(OCC(=O)N3CCC(C(N)=O)CC3)c12	0.3	-110.7	nt	6.4	-0.1	0.717	-7.0
CC(=O)N1CCCc2cc(S(=O)(=O)N3CCC(C)CC3)ccc21	-0.4	4.2	-11.4%	-7.2	0.4	0.645	1.2
Cc1ccccc1NC(=O)NCc1ccco1	-1.6	3.5	21.5%	35.9	0.8	0.659	-2.6
COc1ccccc1CN1CCNC(=O)C1CC(=O)NCCc1cnccn1 (stereo unspecified)	0.6	3.6	-2.6%	-1.6	0.0	0.635	0.7
O=C1Nc2ccccc2/C1=N\c1sc2c(c1C(=O)Nc1ccccc1)CCCC2	2.7	nt	15.3%	3.8	-0.7	nt	3.5
Cc1cc[n+](CC(=O)Nc2nc3ccccc3s2)cc1	-0.3	1.3	-4.2%	-1.8	2.0	0.67	-4.1
O=C1NCCSC1c1ccccc1 (stereo unspecified)	-6.8	3.4	nt	9.0	0.4	0.694	5.4
O=C(CN1CCC(Cc2ccccc2)CC1)NC(=O)NCc1ccco1	0.2	0.5	-4.1%	12.2	0.3	0.652	-0.2
CC(Cc1c[nH]c2ccccc12)NC(=O)C1CCCNC1=O (stereo unspecified)	-0.9	0.6	1.7%	-1.8	0.3	0.702	2.7
CN(CC(=O)Nc1ccccc1Cl)C(=O)COC(=O)/C=C/c1ccccc1	-3.1	2.7	5.5%	-2.6	0.4	0.614	-3.7
O=C(c1ccc(OC2CCN(Cc3ccccc3C(F)(F)F)CC2)cc1)N1CCCCC1	0.6	4.2	-1.8%	1.0	-0.2	0.675	-3.4
CCN(CC)C(=O)CSc1nc2c(sc(=S)n2-c2ccccc2OC)c(=O)n1-c1ccccc1	0.5	8.6	2.1%	4.5	-0.3	0.671	10.0
O=C(Nc1nc(-c2ccc(S(=O)(=O)N3CCOCC3)cc2)cs1)c1ccccc1	-1.4&-0.2	0.2&-4.0	?	1.9&15.0	-1.0	0.672&0.716	3.8
CCOc1cccc(CNc2ccc(O)cc2)c1OCc1ccc(Cl)cc1	1.6	2.0	?	-5.9	0.6	0.737	-1.3
Cc1ccccc1-c1nnnn1C1CCS(=O)(=O)C1 (stereo unspecified)	-2.8	3.0	0.0%	1.6	0.2	0.701	0.8
Cc1cc(C)cc(C(=O)N(C)C2CCCN(Cc3ccccc3F)C2)c1 (stereo unspecified)	2.5	0.5	nt	-6.5	0.6	0.69	-2.1
O=C(c1ccc(F)cc1F)N1CCCN(c2nc(-c3ccccc3)ns2)CC1	-1.0	1.6	4.9%	3.5	-0.1	0.646	-2.7
O=C(COC(=O)c1ccc2ncsc2c1)NC(=O)c1ccccc1	-1.6	1.8	-27.2%	-0.8	-0.7	0.708	0.8
COc1ccccc1CNC(=O)COC(=O)c1cc(-c2ccco2)nc2ccccc12	-49.3	-182.2	9.99µM*	-0.1	-0.3	0.688	-5.5
CC(=O)c1ccc(NC(=O)[C@@]2(CC(=O)O)CC(/C=C/c3ccccc3)=NO2)cc1	-0.5	2.5	-1.1%	-1.6	-0.6	0.674	0.4
CC(C)[C@H](NC(N)=O)C(=O)Nc1ccc2c(c1)CCC2	0.9	4.3	4.7%	-1.2	-0.1	0.743	1.4
CCNc1nc(SCCOc2ccc(Cl)cc2Cl)nc(N(C)C)n1	-4.0	4.1	17.6%	5.7	nt	0.741	nt
Cc1cc(C)n(CC(=O)N2CCCC(N3CCN(c4cccc(C(F)(F)F)c4)CC3)C2)n1 (stereo unspecified)	-0.9	1.1	nt	-0.4	0.6	0.699	-0.4
CCn1c(SCc2nc(CC(=O)Nc3ccccc3OC)no2)nnc1-c1cccs1	-1.4	2.7	1.4%	-11.2	0.1	0.687	-8.2
Cc1nc2cc(NS(=O)(=O)c3ccccc3)ccc2n1C	-2.4	1.3	2.1%	-3.0	0.1	0.708	4.1
Cc1nn(-c2ccccc2)c(Cl)c1/C=N\NC(=O)c1cnccn1	-1.8	nt	?	-11.7	-0.3	nt	-0.9
O=C(CN(Cc1ccccc1Cl)C(=O)c1csnn1)NCc1ccc(F)cc1	-1.3	0.3	nt	4.9	0.2	0.666	2.9
COc1ccc(OC2C(=O)N(c3ccc(C)c(C)c3)C2c2ccc(OC)c(OC)c2)cc1 (stereo unspecified)	-2.2	2.3	1.4%	3.9	-0.9	0.767	2.5
Cc1cc(-c2ccco2)n(-c2ccccc2)n1	5.2	3.4	50.4µM*	-3.1	-0.4	0.679	-4.5
S=C(Nc1ccc(Oc2ccccc2)cc1)Nc1cccnc1	0.3	4.5	nt	-22.1	0.2	0.674	6.7
COc1ccc(C(CNC(=O)c2cc(F)c(F)c(F)c2F)N2CCOCC2)cc1 (stereo unspecified)	3.2	-0.5	3.7%	9.6	-0.6	0.675	-1.4
O=C(Nc1c(F)cc(F)cc1Br)c1cc(-c2ccco2)on1	-0.7	-1.7	23.4%	1.8	-0.2	0.748	7.2
O=C(NC[C@@H]1CCCO1)c1cccc2c1C(=O)c1ccc(N3CCOCC3)cc1S2(=O)=O	20.9	4.7	nt	1.4	0.5	nt	-1.5
COc1cc([N+](=O)[O-])ccc1NC(=S)N1CCOCC1	3.4	6.8	-0.6%	-4.1	0.6	0.673	0.2
Cc1cc(Cl)c(S(=O)(=O)NC2CCCC2)cc1OCC(N)=O	1.1	0.9	nt	-7.1	0.4	0.602	-6.9
Cc1ccc(CNC(=O)Nc2cccs2)cc1	0.1	-1.4	2.9%	-3.3	-0.5	0.702	-2.1
C=CCSc1nn2c(=O)c3ccccc3nc2s1	1.4	2.4	-3.8%	-1.9	-5.1	0.704	6.3
O=C(O)c1cnc(-c2ccccc2)nc1Sc1ccccc1	-0.2	3.4	-0.8%	11.6	0.1	0.682	-2.5
CC(C)=CCC/C(C)=C/COc1c2occc2cc2ccc(=O)oc12	2.1	5.7	nt	-18.8	nt	0.727	nt
CN[C@H](CC(=O)O)C(=O)O	3.1	2.8	nt	3.1	2.1	nt	6.9
O=C1CCc2cc(S(=O)(=O)NCc3ccccc3Cl)ccc2N1	3.3	0.6	-15.7%	-2.6	1.4	0.658	0.8
O=C(COc1ccc2c(c1)CCC2)N1CCN(c2cccc(C(F)(F)F)c2)CC1	-2.2	0.4	-3.0%	-5.6	-0.2	0.631	-3.0
CCC(C)(C)n1nnnc1C(c1cc2cc3c(cc2[nH]c1=O)OCO3)N1CCCCC1 (stereo unspecified)	1.1	-86.2	4.0%	7.9	0.0	0.63	-1.7

(further entries)
SMILES	HNF4A DNA FP	UCH37 inh	Vif TR-FRET	B2AR ag	Bfl-1 A1 inh	E coli growth	LANA-H2A inh
CC(Sc1ncnc2sc(-c3ccccc3)cc12)C(N)=O (stereo unspecified)	4.4	0.0	-12.8%	-7.8	-0.7	0.706	-1.4
CCc1ccc(CNC(=O)C2CC(=O)N(CCc3ccc(C)cc3)C2)cc1 (stereo unspecified)	0.0	3.0	-2.7%	-5.8	-1.2	0.618	1.0
COc1ccc(-c2c(C(C)=O)c(C)nc3sc4c(=O)n(-c5ccc(C)cc5)nnc4c23)cc1	-2.0	-0.2	-0.7%	0.1	-0.6	0.754	6.6
Cc1onc(-c2ccccc2)c1C(=O)Nc1cccnc1	-1.2	0.6	?	-8.0	0.0	0.709	0.3
COc1ccc(NC2CCCN(C(=O)c3ccccc3N3CCOCC3)C2)cc1OC (stereo unspecified)	2.1	2.4	nt	2.7	-0.3	0.683	1.9
CCOC(=O)c1ccc(NC(=O)C(C)N2C(=O)c3ccccc3C2=O)cc1 (stereo unspecified)	-1.0	1.7	-1.6%	0.5	-0.3	0.675	6.2
COc1ccc(C(=O)C(C)OC(=O)COc2ccccc2)cc1 (stereo unspecified)	-1.5	1.5	nt	3.9	0.7	0.711	-1.5
COc1ccccc1/C=C/C(=O)OCC(=O)NCc1ccco1	2.1	-38.4	3.2%	-4.7	0.3	0.716	5.0
CC(C)Cn1c(=O)c(C(=O)Nc2cnccn2)c(O)c2ccccc21	-2.6	2.3	5.6%	0.6	-0.2	0.67	8.1
CCCCCc1cccnc1	-1.2	3.9	-7.9%	-5.8	-0.2	0.716	3.0
Cc1nc2cc(-c3cccs3)nn2c(NCC(C)(C)CN(C)C)c1C	-3.5	-13.7	-4.6%	10.7	-0.1	0.689	3.9
O=C(CCS(=O)(=O)c1ccc(Cl)cc1)N1CCCc2ccccc21	0.0	-0.7	nt	-4.8	1.5	0.652	4.8
CCS(=O)(=O)N1CCN=C1SCc1cccc(F)c1	0.4	5.9	3.1%	-2.1	0.5	0.729	1.3
COc1ccc(Br)cc1CN1CCCCCCC1	2.3	1.0	24.7%	-0.8	0.4	0.675	2.3
